Screens as filed in PubChem BioAssay.
Marburg entry inh – qHTS for inhibitors of binding or entry into cells for Marburg Virus; Potency, µM (top dose mostly 37.8 µM), for the others: top-dose activity change, negative = inhibition, actives largely listed as inhibitors; AID 540276, 2011; hit rate 1.8% among 300,000; Marburg virus pseudotyped entry inhibition, cell reporter; control for the full effect not named in the record; about a third of the inactives were read at about 46 µM; active = well fitted inhibition curve with a large enough effect; inconclusive = small, poorly fitted or top-dose-only effect, or effect the other way; inactive = flat fitted curve, though single readings scatter; tested in HEK293 cells; about a fifth of its hits are not listed in these tables; further: on the % scale 0 is the no-effect control and ±100 the full control effect; luciferase read-out
SARS PLpro yeast – qHTS of Yeast-based Assay for SARS-CoV PLP | Potency, µM (doses to about 32.9 µM), inactives show at the highest dose activity, positive = growth rescue | S. cerevisiae expressing SARS-CoV PLpro, growth rescue; control for the full effect not named in the record | hit rate 0.19% among 330,000 | AID 485353, 2010; further: 0% is about no effect; nearly all actives have a fitted effect of over 55% in size; growth read by luminescence after 48 h
RE007 growth inh – qHTS Assay for Inhibitors of the HIV-1 protein Vpr. S. pombe RE007 Vpr strain, BacTiter-Glo ATP luminescence, 24 h; control for the full effect not named in the record. Potency, µM (doses to about 92.2 µM), inactives show at the top dose activity change, negative = less growth. hit rate 0.21% among 360,000; active = well fitted falling curve with a large enough effect; inconclusive = small, poorly fitted or top-dose-only effect; inactive = no such curve, though single readings can be large or run the other way;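 further: on the % scale 0 is the no-effect control and ±100 the full control effect; nearly all actives have a fitted effect of over 50% in size; the assay follows cell death caused by Vpr and the record does not say whether a fall means rescue or toxicity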
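Fission yeast strain RE007, carrying one chromosomally integrated HIV-1 vpr copy, was seeded at OD 0.01 in PMG+AL medium with 23 nL pinned compound. After 24 h at 30 °C and 99% humidity, viability was read by BacTiter-Glo luminescence.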
NS1 inh – qHTS Assay for Inhibitors of Influenza NS1 Protein Function. Potency, µM (series often up to 46.1 µM), for the others: top-dose activity, positive = more growth. hit rate 0.4% among 270,000. S. cerevisiae slowed by influenza A NS1, growth recovery by OD600; further: actives are rising curves; nearly all actives have a fitted effect of over 50% in size
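Read-out: OD600 growth recovery of NS1-expressing budding yeast. Cells grown overnight at 30C in -URA glucose medium, washed, resuspended and diluted 1:100 in 2% galactose assay medium, pH 6.0. Same strain lacking NS1 served as positive control.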
StopGo reporter – High Throughput Screening for Foot and Mouth Disease Virus Antivirals; human cells with a luciferase reporter of 2A StopGo recoding; control for the full effect not named in the record; Potency, µM (titrated, usually from 57.9 µM), without a hit: top-dose signal change, negative = less light; hit rate 1.2% among 410,000; active = well fitted falling curve with a large enough effect; inconclusive = small, poorly fitted or top-dose-only effect; inactive = no such curve, though single readings can be large or run the other way; tested in HEK293T cells; further: on the % scale 0 is the no-effect control and ±100 the full control effect; nearly all actives have a fitted effect of over 45% in size; luciferase light after 4 h
Cruzain inh Det – qHTS Assay for Promiscuous and Specific Inhibitors of Cruzain (with detergent); Cruzipain (Trypanosoma cruzi), P25779; purified cruzain, Z-FR-AMC fluorescence, 0.01% Triton; Potency, µM, for the others: max response, negative = inhibition, most hits filed as inhibitors; hit rate 0.43% among 200,000; active means well fitted curve in the direction sought with a large enough effect; inconclusive means small, poorly fitted or top-dose-only effect, or another doubt; inactive means no such curve, though single readings can be large; an effect the other way counts as inactive or inconclusive;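 further: plate controls were neutral wells for no effect and buffer without enzyme for full effect; nearly all actives have a fitted effect of over 40% in size; top concentration of the series not given in the record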
Target sequence (P25779 123-467 limits assumed): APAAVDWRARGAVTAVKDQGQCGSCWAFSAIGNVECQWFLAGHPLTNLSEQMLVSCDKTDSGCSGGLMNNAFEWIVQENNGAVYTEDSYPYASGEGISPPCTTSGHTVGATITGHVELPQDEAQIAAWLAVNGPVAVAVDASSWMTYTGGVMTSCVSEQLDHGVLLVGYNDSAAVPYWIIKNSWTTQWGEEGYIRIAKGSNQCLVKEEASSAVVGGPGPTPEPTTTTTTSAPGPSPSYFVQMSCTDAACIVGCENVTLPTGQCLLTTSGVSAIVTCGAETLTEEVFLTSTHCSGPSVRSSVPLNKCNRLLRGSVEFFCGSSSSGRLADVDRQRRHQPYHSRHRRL
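Detergent-containing arm of a paired screen for aggregation-based inhibition: 0.01% Triton X-100 present. Cruzain at 1.5 nM cleaved 2 uM Z-FR-AMC at pH 5.5 with 5 mM DTT; AMC fluorescence gain over 60 s measured activity.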
Cruzain noTriton – qHTS Assay for Promiscuous and Specific Inhibitors of Cruzain (without detergent) | Cruzipain (Trypanosoma cruzi), P25779 | purified cruzain, Z-FR-AMC fluorescence, no detergent | Potency, µM, for inactives: max response, negative = inhibition, most hits filed as inhibitors | hit rate 2.3% among 200,000 | AID 1476, 2009; active means well fitted curve in the direction sought with a large enough effect; inconclusive means small, poorly fitted or top-dose-only effect, or another doubt; inactive means no such curve, though single readings can be large; an effect the other way counts as inactive or inconclusive;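 further: plate controls were enzyme without inhibitor for no effect and buffer without enzyme for full effect; nearly all actives have a fitted effect of over 40% in size; top concentration of the series not given in the record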
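Detergent-free condition (0.00005% Triton X-100) in acetate buffer pH 5.5 with DTT. 1.5 nM enzyme and compound were pre-mixed 15 min, then 2 uM Z-FR-AMC substrate added; reaction progress from fluorescence change between first and third reads (60 s).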
Lassa entry inh – qHTS for Inhibitors of binding or entry into cells for Lassa Virus; Lassa virus pseudotype entry inhibition, cell reporter; control for the full effect not named in the record; Potency, µM (highest dose often 37.9 µM), without a hit: top-dose activity change, negative = inhibition, actives largely listed as inhibitors; hit rate 1.2% among 300,000; active means well fitted inhibition curve with a large enough effect; inconclusive means small, poorly fitted or top-dose-only effect, or effect the other way; inactive means flat fitted curve, though single readings scatter; tested in HEK293 cells; further: on the % scale 0 is the no-effect control and ±100 the full control effect; nearly all actives have a fitted effect of over 50% in size; luciferase read-out
Starred values were filed as active, the others as inactive; ? = inconclusive; · = no result given; & = joins results of further samples; [ ] = another dose, or the depositor's remark. Unless noted, the call rests on the fitted dose curve; in most records, active means well fitted rising curve with a large enough effect; inconclusive means small, poorly fitted or top-dose-only effect; inactive means no such curve, though single readings can be large or run the other way. Potency means the concentration at half of the fitted maximal effect.

The opening two entries as a preview:
SMILES | Marburg entry inh | SARS PLpro yeast | RE007 growth inh | NS1 inh | StopGo reporter | Cruzain inh Det | Cruzain noTriton | Lassa entry inh
Cc1cccc(NCc2ccccc2)c1 | · | 1% | -1% | 2% | 28% | · | · | ·
CCOc1ccc(Nc2ncnc3c2cnn3-c2ccc(F)cc2)cc1 | · | · | · | · | 4% | -0.1% | -2% | -11%[46.1 µM]

The list itself (from the top)
SMILES | Marburg entry inh | SARS PLpro yeast | RE007 growth inh | NS1 inh | StopGo reporter | Cruzain inh Det | Cruzain noTriton | Lassa entry inh
Cc1cccc(NCc2ccccc2)c1 | · | 1% | -1% | 2% | 28% | · | · | ·
CCOc1ccc(Nc2ncnc3c2cnn3-c2ccc(F)cc2)cc1 | · | · | · | · | 4% | -0.1% | -2% | -11%[46.1 µM]
COc1ccc(-c2nc3nc(C)c(Cc4ccccc4)c(=O)n3[nH]2)cc1 | 1% | -2% | 23% | 5% | 36%[activator] | 0.7% | -15% | 13%
C=C(C)C(=O)N1CCN(C(=O)C(=C)C)c2ccccc21 | -8%[46.1 µM] | · | 4% | · | 10% | · | · | 0%[46.1 µM]
COc1ccccc1N1CCN(/N=C/c2ccc(O)cc2O)CC1 | · | 0% | -12% | -6% | 21% | · | · | ·
COc1ccc(-c2noc(CNS(=O)(=O)c3ccc(NC(C)=O)cc3)n2)cc1 | · | 2% | 7% | -4% | -29% | · | · | ·
CC(C)CN1C(=O)C(=O)N(CC(=O)Nc2cc(Cl)ccc2Oc2ccccc2)C1=O | ? | -6% | -22% | ? | -6% | · | · | -15%
O=C(Nc1ccccc1N1CCOCC1)c1csc2c1CCCC2 | · | -1% | -17% | -6% | -8% | · | · | ·
O=C(Nc1ccc(F)cc1)c1cc2ccccc2o1 | · | -8% | -1% | -7% | 25% | · | · | ·
COc1ccc2oc(C(=O)Nc3ccccc3N3CCOCC3)c(C)c2c1 | 11%[46.1 µM] | -1% | 6% | · | -11% | · | · | ·
COc1cc(OC)c(NS(=O)(=O)c2c(C)nc3sc(C)cn3c2=O)cc1Cl | · | · | · | · | -27% | -4.4% | 10% | 3%[46.1 µM]
c1cc2c(cnc3cscc32)s1 | 4% | -1% | -10% | 17% | -2% | -5.0% | -1% | 11%
O=C(OCCCCOC(=O)c1ccccc1)c1ccccc1 | ? | -3% | -5% | -9% | -10% | · | · | 20%[46.1 µM]
CCN(CC(=O)NCc1ccc(Cl)cc1)C(=O)Cc1ccc(OC)cc1 | ? | 2% | -8% | 10% | 13% | · | · | 1%[46.1 µM]
Cn1nccc1C(=O)N1CCOCC1 | · | 0% | 6% | 3% | -5% | · | · | ·
CCCCCCOc1ccc(-c2nc3ccc(Br)cc3c(=O)o2)cc1 | · | · | · | · | 0% | -0.5% | 15% | 2%[46.1 µM]
O=C(CSc1nnc(CNC(=O)c2ccco2)o1)Nc1ccccc1F | 5%[46.1 µM] | -4% | -4% | -15% | -15% | · | · | 26%[46.1 µM]
Cc1ccc(/C=C2/CNC/C(=C/c3ccc(C)cc3)C2=O)cc1 | ? | · | 13% | · | ? | · | · | ?
COc1cccc(-c2cc3nc(-c4ccccc4)cc(N4CCCC(O)C4)n3n2)c1 (stereo not drawn) | · | -2% | -16% | 11% | -25% | · | · | ·
COc1ccc(-n2c(CCC(=O)O)ccc2-c2ccccc2)c(OC)c1 | ? | · | · | · | 7% | -8.5% | -7% | ?
CC(C)CN(C(=O)CCC1CCCCC1)c1c(N)n(CC(C)C)c(=O)[nH]c1=O | 0%[46.1 µM] | 4% | -7% | · | -5% | · | · | -22%
Cc1ccc2[nH]cc(CCNC(=O)c3ccc([N+](=O)[O-])cc3)c2c1 | 4% | -5% | -17% | -11% | -18% | -8.1% | -12% | 7%
Cc1ccc(OCC(=O)Nc2ccc(NC(=O)c3ccccc3)c(C)c2)cc1 | · | 0% | -4% | 12% | 0% | · | · | ·
CCOc1ccc(NS(=O)(=O)c2cc(OC)ccc2OC)cc1 | -30% | 4% | -4% | -59% | 59%[activator] | -1.7% | -1% | -3%
CC(C)C(OC(=O)c1cc2occc2n1C)C(=O)NCc1ccc2c(c1)OCO2 (stereo not drawn) | ? | 1% | 4% | ? | · | -4.0% | -8% | 5%
Later entries.
SMILES | Marburg entry inh | SARS PLpro yeast | RE007 growth inh | NS1 inh | StopGo reporter | Cruzain inh Det | Cruzain noTriton | Lassa entry inh
CCN(CC)C(=O)c1ccc(COc2ccccc2Cl)o1 | ? | -1% | 7% | -9% | 25% | · | · | -5%[46.1 µM]
CC(=O)Nc1ccc2nc(-c3cccs3)[nH]c2c1 | -23% | -1% | 1% | 2% | 56%[activator] | -22% | 30% | -7%
CCC(=O)NCCc1nc2cc(NC(=O)c3ccc(F)cc3)ccc2n1C | · | -1% | 5% | 0% | 49%[activator] | · | · | ·
CCOc1cc(/C=C2\C(=O)N(c3nc(-c4ccc(Br)cc4)cs3)N=C2c2ccccc2)ccc1O | -3%&-3%[46.1 µM] | 14% | -11% | ? | 5.6µM* | ? | 3.2µM* | 21%
Cc1ccc(NC(=O)C2CCN(S(=O)(=O)c3cccc4cccnc34)CC2)nc1 | -2% | -3% | -10% | -10% | 0% | 0.1% | -5% | ·
COc1ccc2cc(CN(CC3CCCO3)S(=O)(=O)c3ccc(C(C)=O)cc3)c(=O)[nH]c2c1 (stereo not drawn) | 14% | 4% | -8% | 6% | · | -4.4% | ? | 0%
O=C(/C=C/c1ccc(S(=O)(=O)N2CCOCC2)cc1)NCc1ccccc1Cl | ? | 9% | -15% | -7% | -14% | -9.4% | 6% | ?
O=C(CSc1nc2c(c(=O)n1-c1ccc(Br)cc1)SCC2)NCC1CCCO1 (stereo not drawn) | -3% | 3% | 17% | -2% | -6% | -6.2% | -10% | -6%
CCC1(C)Cc2ccccc2-c2c1c(=O)n(-c1ccc(C)cc1)c1nnnn21 (stereo not drawn) | -3% | 9% | · | -8% | -6% | 1.3% | 10% | ·
O=C1C(Cc2ccc(O)cc2)NC(=S)N1c1ccccc1 (stereo not drawn) | ? | -1% | -3% | 2% | -10% | -0.5% | 0% | 3%
COc1ccc(CC(=O)N2CCCC(C)C2)cc1 (stereo not drawn) | 15% | 2% | -15% | 12% | 12% | 1.3% | 7% | 14%
CCc1ccc(-n2c(CCC(=O)O)ccc2-c2ccc(F)cc2)cc1 | 4%[46.1 µM] | · | · | · | 4% | -18% | 17% | -1%[46.1 µM]
O=C(Nc1cccc(C(F)(F)F)c1)c1cccn(Cc2ccc3c(c2)OC(F)(F)O3)c1=O | ? | -4% | -7% | -24% | -24% | -7.1% | -7% | 7%
Cc1ccc(C)n1-c1ccc(C(=O)/C=C/N(C)C)cc1 | -26%[46.1 µM] | 1% | -3% | · | 11% | · | · | ?
Cc1ccc(CCNC(=O)c2sc3nc4n(c(=O)c3c2C)CCC4)cc1 | · | -16% | 11% | -11% | -5% | · | · | ·
O=C(CSc1ccc(Cl)cc1)N1CCN(c2ccc(Cl)cc2[N+](=O)[O-])CC1 | -24% | -14% | 5% | -13% | · | 4.6% | -2% | -2%
O=C(c1cnc(N2CCN(c3ncccn3)CC2)c2ccccc12)N1CCN(c2ncccn2)CC1 | ? | 7% | 9% | -54% | -6% | -3.4% | ? | -28%
CN(C)c1nc(OCCNC(=O)COc2ccccc2Cl)nc(N(C)C)n1 | -13% | ? | 10% | -3% | -19% | 0.0% | 23% | -18%
COc1ccc(OCc2nc3c4c(ncn3n2)-c2ccccc2CC42CCCC2)cc1 | ? | 17% | 15% | 8% | ? | -0.4% | 2% | -4%
Cc1ccc(NC(=O)C2CCCNC2=O)nc1 (stereo not drawn) | 8% | 1% | -7% | 6% | -6% | 0.2% | 6% | 15%
CC(=O)OC1CC2(C)C(CCC2(O)C(C)=O)C2CCC3C(Cl)C(=O)CCC3(C)C12 (stereo not drawn) | ? | · | 17% | · | -9% | · | · | 3%[46.1 µM]
c1ccc(-c2ccc(-c3nc(-c4ccccn4)no3)cc2)cc1 | ? | -35% | 40µM* | -64% | 2.8µM* | -2.2% | ? | ?
COc1ccc(CNC(=O)C[C@H]2C(=O)N(c3ccccc3)C[C@@H]2Cc2ccccc2)cc1 | · | -6% | -2% | -31% | -17% | · | · | ·
COc1cc(C(=O)OC(C)CN2CCOCC2)cc(OC)c1OC (stereo not drawn) | 1% | -6%&3% | 14% | -1%&-6% | -6%&57% | 5.6% | 0% | 4%
CCOc1ccc(NC(=O)CN2C(=O)C(c3ccccc3)=NC23CCC(C)CC3)cc1 (stereo not drawn) | -18%[46.1 µM] | · | · | · | -22% | -10.0% | -15% | -2%[46.1 µM]
More results follow.
SMILES | Marburg entry inh | SARS PLpro yeast | RE007 growth inh | NS1 inh | StopGo reporter | Cruzain inh Det | Cruzain noTriton | Lassa entry inh
OC(COc1ccc(Cl)cc1)CN1CCCCC1 (stereo not drawn) | -29% | 3% | 11% | -3% | -26% | 1.0% | -10% | 21%
COc1ccc(C(=O)Nc2ccc(S(=O)(=O)N3CCCC3)cc2)cc1 | 7%[46.1 µM] | 0% | 2% | -14% | 6% | · | · | 0%
Cc1ccc(-c2ccc(CCC(=O)O)n2C(C)C)cc1 | 1% | 3% | 2% | -94% | -21% | -1.8% | 3% | ·
Cc1ccc(C(=O)CCS(=O)(=O)c2ccc(Br)cc2)cc1 | 15%[46.1 µM] | 1% | 9% | 0% | 11% | · | · | ?
CCN(CC)c1ccc(C(=O)N/N=C/c2ccc(OC)cc2OC)cc1 | -18%[46.1 µM] | 0% | 5% | · | 1% | · | · | ·
O=C(c1ccc(F)cc1)C1CCN(C(=O)c2ccccc2F)CC1 | · | 2% | 0% | -11% | -15% | · | · | ·
